Bioassay records (PubChem)
PINK1 modulator: changes PINK1 expression | Potency, µM (series often up to 76.6 µM), for inactives: at the highest dose activation (PINK1 increase), usual class: activators | actives 0.2% (n = 410,000) | PINK1 immunofluorescence, high-content cytometry, 24 h | AID 624263; active = well fitted activation curve with a large enough effect; inconclusive = small, poorly fitted or top-dose-only effect; inactive = flat fitted curve, though single readings scatter; cell line not stated here;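 further: potency means the concentration at half of the fitted maximal effect; % of control where 0% means no effect; nearly all actives have a fitted effect of over 65% in size; a mitochondrial uncoupler was the plate control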
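Stable cell line, 250 cells/well, 12 h attachment; compounds pinned at 5 concentrations, 24 h; CCCP control. Fixed with nuclear dye, primary antibodies 12 h at 10 degrees C, secondary plus cell stain; laser-scanning cytometer read.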
TRPML1 inh: inhibitors of human TRPML1 channel; TRPML1-inducible cells, Ca2+ dye fluorescence, FDSS; stronger effect = lower value; inhibition of EC80 agonist-evoked calcium signal; actives 0.02% (n = 390,000); AID 624415; Q9GZU1; activity change, negative = inhibition, % (concentration not given with the values); in the data active means activity change below about -50%; inconclusive means about -30% to -50%; inactive means above about -30%;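 further: stimulus is agonist 54-4 at its EC80 concentration; on the % scale 0 is the no-effect control and ±100 the full control effect; compound concentration not given in the record; the text of the record puts the active cut at -80%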
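TRPML1-DL cells, Tet-induced overnight (~16 h, 37 °C) at 1,500 cells/well, were loaded with Ca8 no-wash dye plus quencher for 45-90 min at room temperature. Compounds were pinned during FDSS kinetic reading; agonist 54-4 at EC80 (4 uM final) then added.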
Six1-Eya2 blk: Six1/Eya2 interaction inhibition | activity change, % (no concentration beside the values) | actives 0.56% (n = 360,000) | AlphaScreen GST-Six1/His-Eya2 binding, biochemical; stronger effect = lower value; control for the full effect not named in the record | Q15475+O00167; in the data active = activity change below about -65%; inconclusive = about -30% to -65%; inactive = above about -30%; further: on the % scale 0 is the no-effect control and ±100 the full control effect; compound concentration not given in the record
Target sequence (O00167 whole entry, looked up): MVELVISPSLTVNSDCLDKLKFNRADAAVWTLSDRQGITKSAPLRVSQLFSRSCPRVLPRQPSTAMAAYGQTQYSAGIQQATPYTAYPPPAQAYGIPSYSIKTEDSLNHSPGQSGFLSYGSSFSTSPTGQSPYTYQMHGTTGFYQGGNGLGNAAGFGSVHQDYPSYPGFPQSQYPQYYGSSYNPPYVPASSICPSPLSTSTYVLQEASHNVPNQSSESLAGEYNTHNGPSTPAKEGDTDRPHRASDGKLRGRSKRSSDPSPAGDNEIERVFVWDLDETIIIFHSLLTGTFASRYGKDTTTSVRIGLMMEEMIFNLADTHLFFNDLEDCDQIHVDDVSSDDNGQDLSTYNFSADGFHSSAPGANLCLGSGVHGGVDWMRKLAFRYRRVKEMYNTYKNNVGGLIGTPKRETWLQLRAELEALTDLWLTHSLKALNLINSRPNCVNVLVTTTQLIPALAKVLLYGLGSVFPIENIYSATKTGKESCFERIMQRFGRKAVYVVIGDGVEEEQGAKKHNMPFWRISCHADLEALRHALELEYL
Target sequence (Q15475 whole entry, looked up): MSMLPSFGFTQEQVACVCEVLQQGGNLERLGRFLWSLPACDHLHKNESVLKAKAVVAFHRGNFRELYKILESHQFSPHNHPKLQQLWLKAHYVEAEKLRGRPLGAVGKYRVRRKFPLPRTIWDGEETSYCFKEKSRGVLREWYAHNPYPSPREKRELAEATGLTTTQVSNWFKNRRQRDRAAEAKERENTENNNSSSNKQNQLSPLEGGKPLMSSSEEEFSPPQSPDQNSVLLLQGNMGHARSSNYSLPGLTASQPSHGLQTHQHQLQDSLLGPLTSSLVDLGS
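AlphaScreen with GST-Six1 and His-Eya2 (5X mix: 250 nM and 500 nM), glutathione donor and nickel acceptor beads; buffer 50 mM Tris pH 8.0, 300 mM NaCl, 1 mM TCEP; 1 h at 37 C in the dark.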
TRPML1 ag: human mucolipin-1 channel agonism | TRPML1-expressing cells, Ca2+ dye fluorescence, FDSS; host cell line not named in the record; reference of the full effect not given here | activation, % (concentration not given with the values) | actives 0.12% (n = 410,000) | AID 624414; in the data active = activation above about 50%; inconclusive = about 30% to 50%; inactive = below about 30%; further: 0% is about no effect; the text of the record puts the active cut at 80%
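Kinetic FDSS Ca2+ read in Tet-induced TRPML1-DL cells (ABD Ca8 dye plus quencher, 45-90 min RT loading): baseline, then compound, then 110 s agonist window; EC80 agonist 54-4 at 4uM final added afterwards for a 110 s antagonist window.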
D2 agonist: agonists of human D2 dopamine receptor (beta-arrestin) | activation, % (concentration not given with the values) | DiscoveRx PathHunter D2 beta-arrestin, luminescence, 90 min; 100% = 57 uM dopamine signal | AID 624465 | actives 0.084% (n = 360,000) | P14416; in the data active = activation above about 40%; inconclusive = about 15% to 40%; inactive = below about 15%; further: compound concentration not given in the record; the text of the record calls up to 30% inactive
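Agonist mode: compounds alone added to overnight-plated D2 PathHunter cells for 90 min at 37 C, with 57 uM final dopamine (EC100) defining full response. Beta-arrestin recruitment detected by chemiluminescent reagent, read after 1 h at ambient temperature.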
CtBP-E1A blk: blocks the CtBP interaction with E1A; AlphaScreen GST-E1A/His-CtBP binding, 1536-well; stronger effect = lower value; control for the full effect not named in the record; activity change, % (test concentration not listed); actives 0.49% (n = 340,000); in the data active means activity change below about -65%; inconclusive means about -30% to -65%; inactive means above about -30%; further: on the % scale 0 is the no-effect control and ±100 the full control effect; compound concentration not given in the record
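In 5 uL wells, 23 nL compound meets equimolar GST-E1A and His-CtBP (5X stock 125 nM each) for 2 h, 37 °C. Beads (5X, 50 ug/mL) then 1 h, 37 °C, dark.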
* = called active by the depositor; ? = inconclusive; · = no result given; [ ] = remark or other dose.

SMILES	PINK1 modulator	TRPML1 inh	Six1-Eya2 blk	TRPML1 ag	D2 agonist	CtBP-E1A blk
Cc1c(-c2ccc(Cl)cc2Cl)nc2ccccc2c1C(=O)NCCN1CCOCC1	-0.2%	-26	-2	1.2	-0.3	2
O=C(NC1(C(F)(F)F)NC(=O)N(Cc2cccnc2)C1=O)c1ccncc1 (stereo not given)	·	0	6	0.4	-2.2	11
COCCCN1CN(S(=O)(=O)c2ccc(Cl)cc2)c2nc3ccccc3nc21	3.1%	0	-3	1.6	-0.3	-1
CCn1cc(S(=O)(=O)Nc2cccnc2)cn1	0.8%	-6	4	-0.3	-2.8	8
CC1CCCN(S(=O)(=O)c2ccc(NC(=O)CN3C(=O)NC(C)(c4ccccc4)C3=O)cc2)C1 (stereo not given)	1.5%	10	-6	-0.5	1.1	-2
CCn1c(CO)nc2c1c(=O)[nH]c(=O)n2Cc1ccccc1	1.9%	-7	2	0.4	-13	0
Cc1cccc(C(=O)N(CCc2ccccc2)Cc2ccccc2)c1[N+](=O)[O-]	?	43	-14	-0.1	-0.1	-21
CCOc1ccc(C(=O)N2CCN(Cc3cc(=O)n4nc(-c5ccccc5Cl)sc4n3)CC2)cc1	-0.2%	-23	·	-0.6	·	·
Cc1nn(CCO)c2ncc(C(=O)c3cc(Cl)ccc3O)cc12	-0.7%	0	2	0.4	-4.8	-9
COc1ccc(-c2nn(-c3ccccc3)cc2/C=C/C(=O)N(C)CC(=O)Nc2cccc(F)c2)cc1OC	1.6%	12	-7	-0.1	10	-4
COc1cc(OC)c2c(c1)OC(=O)CC2c1ccc(C)cc1 (stereo not given)	1.6%	-20	3	-0.3	-0.6	3
CN1CCN(Cc2cc(=O)oc3cc4c(cc23)CCC4)CC1	-5.7%	5	0	0.0	-4.9	4
Cc1cccc(C(=O)NCC(=O)OCC(=O)c2ccc(Br)s2)c1	-1.3%	-3	-5	1.4	-9.9	0
CCC(C)(C)NC(=O)c1ccc2c(c1)OCCO2	0.0%	-16	3	0.8	8.0	0
CN(C)c1ccc(S(=O)(=O)N2CCCCC2)cc1NC(=O)C1CSC2(C)CCC(=O)N12 (stereo not given)	1.4%	31	-3	0.0	-1.4	-1
Oc1c(Cl)c(Cl)c2ncccc2c1Cl	-0.2%	31	-14	1.6	1.8	0
O=C1COC(c2ccccc2)=CN1Cc1ccccc1	0.7%	-10	-7	-0.8	-1.3	-1
CC(C)=C(NC(=O)c1ccccc1)C(=O)N/N=C/c1ccc(O)cc1	-2.4%	-9	2	0.9	0.1	6
CCN(CC)CCN(Cc1cc2cc3c(cc2[nH]c1=O)OCCO3)C(=O)NC1CCCCC1	2.0%	-3	-1	-0.4	-0.8	2
O=C(Oc1cccc2c(O)cccc12)c1ccccc1	-6.1%	1	-6	1.2	3.9	-1
CC1CCCN(C(=O)C2CCN(c3ncnc4c3nc3n4CCCCC3)CC2)C1 (stereo not given)	2.3%	-2	-1	0.5	3.0	·
CN=C(Nc1cc(Cl)ccc1Cl)SC1CC(=O)N(c2ccc(C(=O)OC)cc2)C1=O (stereo not given)	13%	1	-5	0.9	2.3	-6
COc1cccc(CN2CCN(C3CCN(c4ccccc4C)CC3)CC2CCO)c1 (stereo not given)	4.3%	54	-3	-0.7	-7.6	·
Cc1nnc(SCC(=O)N(C)Cc2ccccc2)[nH]c1=O	-1.2%	1	-7	-1.0	-5.0	-1
Cc1ccc(CN2CC(C(=O)Nc3ccc(C)c(S(=O)(=O)N4CCCCC4)c3)CC2=O)cc1 (stereo not given)	7.0%	9	-4	0.4	-1.0	-6
CCOC(=O)N1CCC(NC(=O)CCc2nc(-c3ccccc3F)no2)CC1	1.5%	11	2	-0.4	-1.9	13
COc1ccc(OCC(=O)O/N=C(\N)Cc2cccs2)cc1	0.1%	-1	-9	-0.5	-0.8	-10
CCCN(CCC)S(=O)(=O)c1ccc(C(=O)Nc2nnc(-c3cccc(OC)c3)o2)cc1	2.3%	-9	1	0.1	3.2	2
O=C(NCCc1ccccc1F)N[C@@H](Cc1ccccc1)C(=O)O	0.8%	0	6	1.0	-4.3	·
COc1ccccc1CNC(=O)c1cnc2ccccn2c1=O	0.0%	14	0	-0.8	-3.4	4
CC(NC(=O)c1cccs1)c1ccccc1 (stereo not given)	1.9%	-10	-1	0.4	-3.8	·
CCCC1C2C(=O)N(c3ccccc3OC)C(=O)C2ON1c1ccccc1 (stereo not given)	-0.6%	43	-4	-0.4	-3.6	0
CC1(OC(=O)C2CCCC2)C(=O)C=C2C=C(c3ccc(C#N)cc3)OC=C2C1=O (stereo not given)	2.0%	5	-14	-0.5	0.3	-7
Cn1c(=O)c2c(-c3ccc(Cl)cc3)n(Cc3ccccc3)cc2n(C)c1=O	-1.7%	52	·	2.9	·	·
CN(C)c1ccc(N=Nc2ccccc2C(=O)OCC(=O)N2CCCCCC2)cc1	2.2%	-10	-74*	1.1	-6.2	-66*
O=C1C=CC(O)C2(CO)OC12 (stereo not given)	?	-8	-2	0.0	-1.0	2
COc1ccc([C@H]2C[C@@H](O)[C@H](n3cc(COC(=O)c4ccccc4)nn3)CN2C(=O)c2cccs2)cc1	0.3%	·	-1	·	2.7	-5
COC(=O)c1cn(C(=O)c2ccc(Cl)cc2)c2ccccc12	3.8%	-16	-8	0.1	-2.8	13
O=C(COC(=O)c1ccc(OC(F)F)cc1)NCC1CCCO1 (stereo not given)	-1.6%	-2	-7	-0.2	-4.2	4
Cc1cc(Cl)c(S(=O)(=O)NCc2cccnc2)cc1OCC(N)=O	-0.9%	-7	1	0.8	-4.5	2
COc1ccc(NC(=O)CCn2cccn2)cc1OC	0.7%	8	·	-0.2	·	·
O=C(CN1CCC(n2nnc3cc(F)ccc32)CC1)NCc1ccco1	-5.8%	-11	-1	1.4	-5.1	-14
CCc1cc(C(c2ccncc2)N2CCN(C)CC2)c(NC(=O)c2ccccc2)s1 (stereo not given)	-1.1%	6	-2	2.2	-1.4	5
Cc1cccc(NC2SC(=O)NC2=O)c1 (stereo not given)	-1.5%	-11	7	0.7	-3.7	10
Cc1cc(Cl)ccc1OCC(=O)N1CCCN(C(=O)COc2ccc(Cl)cc2C)CC1	?	3	-23	0.7	-3.1	5
N#Cc1sc(NCc2ccccn2)nc1Cl	0.3%	21	-3	1.1	1.2	4
O=C(OCc1cc2ccccc2[nH]c1=O)c1cccs1	14%	-5	2	2.0	-7.7	4
CC1(C)C2CC=C(/C=N/NC(=O)C(N)=O)C1C2 (stereo not given)	0.9%	-14	-1	0.0	-0.5	·
Cc1cc(OCC(=O)N2CCOCC2)ccc1NC(=O)C1CCCCC1	?	15	0	-0.4	1.4	7
CCOC(=O)CNC(=O)CSc1nnc(-c2ccc(OC)cc2)n1CC	-1.3%	-1	-9	1.0	-1.3	-1
CCN(CC)c1ccc(C2NC(=O)c3ccccc3N2)cc1 (stereo not given)	16%	18	3	2.6	-4.9	-4
CC(Cl)c1cc(-c2ncc(C(F)(F)F)cc2Cl)no1 (stereo not given)	2.0%	-13	4	0.5	-1.6	0
COc1ccc(Cl)cc1S(=O)(=O)N1CCC(C(=O)N2CCOCC2)CC1	0.4%	6	0	1.3	1.5	4
C(=C\c1ccccc1)/CSc1nnc(-c2cccnc2)n1Cc1ccco1	·	-10	-1	-0.3	0.2	-2
COc1ccc(NC(=O)Cn2nc([N+](=O)[O-])c(Cl)c2C)cc1OC	-0.3%	·	0	·	-2.6	-3
Cc1nc2c(=O)n(-c3ccc(F)cc3F)nc(C)c2s1	-0.2%	-10	4	-0.8	-7.4	·
Cc1ccccc1OCC(=O)Nc1ccc2oc(=O)ccc2c1	1.4%	13	1	-1.5	1.0	0
CCOc1cc(/C=C2\SC(=N)N(c3nccs3)C2=O)ccc1OCCN1CCOCC1	-0.7%	-15	?	1.7	1.5	?
CC(C)C(=O)N(c1ccc(F)cc1)C1C=CS(=O)(=O)C1 (stereo not given)	4.5%	2	24	0.1	-4.5	3
COc1ccc(-c2cc(N)n(S(=O)(=O)c3ccc(C)cc3)n2)c(OC)c1	0.6%	23	0	-1.6	-7.6	-1
(cont.)
SMILES	PINK1 modulator	TRPML1 inh	Six1-Eya2 blk	TRPML1 ag	D2 agonist	CtBP-E1A blk
Cc1ccc(N(CC(=O)NC(C)C)C(=O)CCC(=O)Nc2ccccn2)cc1	1.8%	-13	14	0.2	-0.6	4
C=CCn1c(SCC(=O)NCc2ccc3c(c2)OCO3)nc2scc(-c3ccc(F)cc3)c2c1=O	3.3%	-1	3	6.0	-2.9	-4
O=S(=O)(Nc1ccncc1)c1ccc(Cl)cc1	?	5	-9	-0.5	-2.3	-9
Cc1cccc(NS(=O)(=O)c2ccc3c(c2)NC(=O)CC(=O)N3)c1	-0.7%	-14	5	0.4	1.3	·
CCc1ncc(C(=O)c2ccc(OC)cc2)n1C	?	8	2	0.3	-2.1	-14
CCCCOc1ccc2c(C)cc(=O)oc2c1OCCCC	0.3%[38.3 µM]	5	13	0.7	-3.7	36
Cc1c(C(=O)Nc2ccccc2F)sc2ncnc(N(C)C3CCCCC3)c12	3.3%	-17	·	0.0	·	·
Cc1ccc(S(=O)(=O)N2CCN(Cc3cccc(F)c3)CC2)cc1	0.3%	0	-2	1.9	-6.6	3
CCn1c(SCC(=O)Nc2sc(C)c(C)c2C#N)nnc1C1CC1	-1.7%	-11	-1	0.1	-0.3	0

Rows are unselected; about 1% have a hit in one of these screens.
